D2 PAM = Beta-Arrestin HTS for Positive Allosteric Modulators of the Human D2 Dopamine Receptor: Potentiators | potentiation, % (concentration not given with the values) | 360,000 tested, 0.23% active | DiscoveRx D2 beta-arrestin cells, luminescence, 90 min; 100% = 57 uM dopamine signal; active = potentiation of 50% or more; inconclusive = 30% to 50%; inactive = 30% or less;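 further: compound concentration not given in the record; tested on top of an EC20 dose of dopamine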
Target sequence (P14416 whole entry, looked up): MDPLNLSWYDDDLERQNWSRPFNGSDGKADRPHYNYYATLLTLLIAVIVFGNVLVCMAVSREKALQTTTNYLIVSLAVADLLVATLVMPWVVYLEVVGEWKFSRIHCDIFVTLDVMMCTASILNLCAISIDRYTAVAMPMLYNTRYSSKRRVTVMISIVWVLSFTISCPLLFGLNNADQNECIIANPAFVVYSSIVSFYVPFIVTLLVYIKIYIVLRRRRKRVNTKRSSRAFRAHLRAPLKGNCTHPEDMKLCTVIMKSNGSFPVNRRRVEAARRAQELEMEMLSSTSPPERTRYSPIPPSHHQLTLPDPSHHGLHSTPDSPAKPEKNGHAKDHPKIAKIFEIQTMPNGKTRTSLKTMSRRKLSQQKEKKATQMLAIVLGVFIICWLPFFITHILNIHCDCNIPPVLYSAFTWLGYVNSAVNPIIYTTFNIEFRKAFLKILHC
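D2 cells co-treated with compound plus 50 nM dopamine (EC20) for 90 min at 37 deg C to detect potentiation. Beta-arrestin recruitment was read as enzyme-fragment luminescence after 1 h at ambient temperature. Full response was set by 57 uM dopamine.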
Six1-Eya2 blk = qHTS Assay for Inhibitors of the Six1/Eya2 Interaction. AlphaScreen GST-Six1/His-Eya2 binding, biochemical; active compounds read low; control for the full effect not named in the record. Homeobox protein SIX1 (Homo sapiens) + Protein phosphatase EYA2 (Homo sapiens), …. activity change, % (test concentration not listed). AID 651725, 2012. 360,000 tested, 0.56% active; in the data active = activity change below about -65%; inconclusive = about -30% to -65%; inactive = above about -30%; further: on the % scale 0 is the no-effect control and ±100 the full control effect
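Six1/Eya2 binding was read as AlphaScreen signal after compounds were pinned into GST-Six1 plus His-tagged Eya2 (5X stock 250/500 nM) in pH 8.0 Tris/NaCl/TCEP buffer, beads added, then incubated 1 h, 37 C, dark.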
TRPML1 blocker = qHTS for Inhibitors of the Human Mucolipin Transient Receptor Potential 1 (TRPML1); Mucolipin-1 (Homo sapiens), Q9GZU1; TRPML1-inducible cells, Ca2+ dye fluorescence, FDSS; active compounds read low; inhibition of EC80 agonist-evoked calcium signal; activity change, negative = inhibition, % (no concentration beside the values); 390,000 tested, 0.02% active; AID 624415, 2012; in the data active means activity change below about -50%; inconclusive means about -30% to -50%; inactive means above about -30%;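 further: stimulus is agonist 54-4 at its EC80 concentration; on the % scale 0 is the no-effect control and ±100 the full control effect; compound concentration not given in the record; the text of the record puts the active cut at -80%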
Target sequence (Q9GZU1 whole entry, looked up): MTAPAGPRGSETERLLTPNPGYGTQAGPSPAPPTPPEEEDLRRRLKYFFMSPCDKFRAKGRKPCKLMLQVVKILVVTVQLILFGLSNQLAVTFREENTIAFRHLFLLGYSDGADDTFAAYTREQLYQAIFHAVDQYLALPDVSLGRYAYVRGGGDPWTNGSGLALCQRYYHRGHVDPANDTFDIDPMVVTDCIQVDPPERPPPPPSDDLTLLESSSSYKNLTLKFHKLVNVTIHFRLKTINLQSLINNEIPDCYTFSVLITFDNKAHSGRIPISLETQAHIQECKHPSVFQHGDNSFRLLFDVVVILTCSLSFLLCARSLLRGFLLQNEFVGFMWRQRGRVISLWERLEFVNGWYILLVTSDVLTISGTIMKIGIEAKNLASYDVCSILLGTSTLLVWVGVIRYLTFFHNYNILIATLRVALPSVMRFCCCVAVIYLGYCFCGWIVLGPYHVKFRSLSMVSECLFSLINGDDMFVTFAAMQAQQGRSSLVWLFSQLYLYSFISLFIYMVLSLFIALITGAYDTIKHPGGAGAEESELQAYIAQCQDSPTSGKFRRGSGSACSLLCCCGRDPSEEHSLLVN
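Calcium fluorescence in TRPML1-DL cells induced overnight with Tet: a 110 s read after compound pin addition, then a 110 s antagonist read after challenge with 54-4 at 4 uM final (EC80).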
TRPML1 ag = qHTS for Agonists of the Human Mucolipin Transient Receptor Potential 1 (TRPML1); TRPML1-expressing cells, Ca2+ dye fluorescence, FDSS; host cell line not named in the record; reference of the full effect not given here; activation, % (concentration not given with the values); 410,000 tested, 0.12% active; AID 624414, 2012; in the data active = activation above about 50%; inconclusive = about 30% to 50%; inactive = below about 30%; further: 0% is about no effect; the text of the record puts the active cut at 80%
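Calcium fluorescence on an FDSS kinetic reader gave the read-out. Tet-induced TRPML1-DL cells were plated overnight, dye-loaded (Ca8 with quencher, 45-90 min, room temperature, dark), then read 110 s after compound addition, and again 110 s after 4uM final 54-4 (EC80).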
PINK1 expr mod = A Quantitative High throughput Screen to Identify Chemical Modulators of PINK1 Expression; PINK1 immunofluorescence, high-content cytometry, 24 h; Potency, µM (top dose mostly 76.6 µM), for inactives: top-dose activation (PINK1 increase), usual class: activators; 410,000 tested, 0.2% active; AID 624263, 2012; active = well fitted activation curve with a large enough effect; inconclusive = small, poorly fitted or top-dose-only effect; inactive = flat fitted curve, though single readings scatter; cell line not stated here;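 further: potency means the concentration at half of the fitted maximal effect; % of control where 0% means no effect; nearly all actives have a fitted effect of over 65% in size; a mitochondrial uncoupler was the plate control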
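PINK1 protein, normally rapidly degraded, was detected by immunofluorescence after 24 hour compound treatment of a stable cell line. Titration data (5 concentrations) came from laser-scanning cytometry, with CCCP-treated wells as controls.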
D2 agonist = Beta-Arrestin HTS for Positive Allosteric Modulators of the Human D2 Dopamine Receptor: Agonists. D(2) dopamine receptor (Homo sapiens), P14416. DiscoveRx PathHunter D2 beta-arrestin, luminescence, 90 min; 100% = 57 uM dopamine signal. activation, % (test concentration not listed). 360,000 tested, 0.084% active. AID 624465, 2012; in the data active = activation above about 40%; inconclusive = about 15% to 40%; inactive = below about 15%; further: compound concentration not given in the record; the text of the record calls up to 30% inactive
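DiscoveRx PathHunter D2 beta-arrestin cells (2,100/well) attached overnight, then compound-stimulated 90 min at 37 C in HBSS/10 mM HEPES/0.1% Tween-20 buffer; beta-galactosidase complementation read by luminescence after 1 h at ambient temperature. Dopamine 57 uM final (EC100) as control.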
The depositor's hits bear a star; ? = inconclusive; nt = no result given; & = joins results of further samples; [ ] = dose if it differs, or a comment. Hits appear at their usual frequency; 1% or so of the library scored in one or more.

The first two entries, ahead of the listing:
Under each structure – D2 PAM	Six1-Eya2 blk	TRPML1 blocker	TRPML1 ag	PINK1 expr mod	D2 agonist
- O=C(Nc1cccc(Cl)c1Cl)c1ccc(-c2ccccc2)cc1
→ -4	1	-4	0.4	11µM*	-4.3
- CCCn1c(N)c(C(=O)CSc2nnc3n2CCCCC3)c(=O)[nH]c1=O
→ -2	-2	3	0.0	0.4%	-0.4

This part in full (from the top)
Under each structure – D2 PAM	Six1-Eya2 blk	TRPML1 blocker	TRPML1 ag	PINK1 expr mod	D2 agonist
- O=C(Nc1cccc(Cl)c1Cl)c1ccc(-c2ccccc2)cc1
→ -4	1	-4	0.4	11µM*	-4.3
- CCCn1c(N)c(C(=O)CSc2nnc3n2CCCCC3)c(=O)[nH]c1=O
→ -2	-2	3	0.0	0.4%	-0.4
- COC(=O)c1cc(-c2c(-c3ccc4c(c3)OCO4)noc2-c2ccsc2)cc([N+](=O)[O-])c1
→ -7	14	-17	-1.0&-0.1	2.2%	-0.6
- CC(NCc1ccccc1)C1COc2ccccc2O1 (configuration not stated)
→ -21	15	0	1.3	5.5%	4.1
- Cc1ccccc1-c1noc(-c2ccc(NCc3cccnc3)c([N+](=O)[O-])c2)n1
→ nt	nt	-6	0.7	0.2%	nt
- Cc1cc(NS(=O)(=O)c2ccc(NC(=O)c3ccc(Cl)cc3Cl)cc2)no1
→ -4	-21	2	-0.7	0.0%	-2.9
- Cc1ccccc1CN1C(=O)C(C)S/C1=N/N=C/c1ccco1 (configuration not stated)
→ -11	-3	-6	3.0	1.0%	-3.4
- Cc1ccccc1-c1nc2sc3c(c2c(=O)n1N)CCCC3
→ -2	?	-1	-0.1	3.3%	-2.3
- COc1cc(OC)c(NS(=O)(=O)c2ccc3c(c2)NC(=O)CO3)cc1Cl
→ -6	0	9	0.0	-1.0%	2.7
- COc1ccc(N2CCN(C(=O)c3cc(C4CC4)nn3-c3ccccc3)CC2)cc1
→ -2	-29	-3	0.9	-0.6%	-4.8
- CCOC(=O)C1CCCN(C(=O)c2cn(CC)c3ccc(S(=O)(=O)N(C)C)cc3c2=O)C1 (configuration not stated)
→ 0	5	-1	0.4	0.2%	-2.5
- C1CCN(c2nc3nonc3nc2N2CCCC2)C1
→ -2	-1	-9	-0.7	-1.5%	-2.0
- C=CCc1ccc(OCCCCN2CCC(C)CC2)c(OC)c1
→ -7	-3	-19	0.0	0.0%	-0.8
- O=C(N/N=C/c1cc2c(cc1[N+](=O)[O-])OCO2)c1ccccn1
→ -7	-6	44	-0.1	2.3%[38.3 µM]	-2.1
- Cc1noc(C)c1C(=O)Nc1ccccn1
→ -10	0	2	-0.7	12%[38.3 µM]	-2.5
- CCOc1ccc(NC(=O)CSc2nc(C)c(C(=O)Nc3ccccc3)c(-c3ccc(Cl)cc3)c2C#N)cc1
→ nt	nt	12	0.0	2.4%	nt
- CCCCN1C(=O)C(NC(=O)CC(C)C)(C(F)(F)F)C2=C1CC(C)(C)CC2=O (configuration not stated)
→ -11	21	-1	0.3	-1.0%	-4.4
- COc1cccc(CNC(=O)Cn2c(=O)oc3cc(S(=O)(=O)N4CCCCCC4)ccc32)c1
→ nt	nt	-16	1.2	5.5%	nt
- O=C(COc1ccc(Br)cc1)N/N=C1/SCC(=O)N1Cc1ccco1
→ -7	1	10	1.7	-1.5%	-2.0
- O=C(N/N=C/c1cccc(C(F)(F)F)c1)c1ccccc1O
→ -9	0	5	0.1	19%	-1.0
- CCCCNC(=O)c1cccc(S(=O)(=O)N2CC3(C)CC2CC(C)(C)C3)c1 (configuration not stated)
→ -1	-2	5	0.8	6.9%	-0.9
- CC(=O)CSc1nnc2[nH]c(=O)cc(N)n12
→ nt	nt	7	0.3	-1.4%	nt
- Cc1ccc(-n2nnnc2-c2cnn(-c3cccc(F)c3)c2C(F)(F)F)cc1
→ 10	7	-6	2.0	2.1%	-0.7
- Cc1ccc(NC2SC(=O)N(Cc3cccc(C(=O)O)c3)C2=O)cc1 (configuration not stated)
→ -7	10	-3	-0.8	1.6%	-0.1
- CS(=O)(=O)N(CC(=O)N1CCCCCC1)c1cccc([N+](=O)[O-])c1
→ -7	-6	10	0.5	-0.1%	-0.1
- Cc1ccc(Nc2nc(-c3c(C)nc4ccccn34)cs2)cc1
→ -36	-16	33	0.9	5.5%	-1.4
- O=C1CNC(=O)N1c1ccc(Cl)cc1
→ 1	7	2	-0.8	-0.3%	-0.1
- CN1CCN(NC(=S)Nc2ccc(Oc3ccccc3)cc2)CC1
→ -4	-6	3	-0.3	1.5%	-2.2
- O=C1C(=O)c2ccccc2C(O)=C1C1CCC(c2ccc(Cl)cc2)CC1 (configuration not stated)
→ -7	2	6	-0.7	4.0%	-4.9
- CCn1nc(C)c(/C=N/NC(=O)c2ccc3c(c2)c(C)c(C)n3Cc2ccccc2)c1C
→ -6	-12	-9	1.4	1.8%	0.5
- O=C(CCC(=O)NNc1nc2ccccc2c2nc(-c3ccccc3)nn12)NCCCN1CCCC1=O
→ 3	-11	6	-0.6	1.3%	2.4
- COc1ccc(N2CCN(Cc3nc(N)nc(Nc4ccc(C)c(Cl)c4)n3)CC2)cc1
→ -12	?	1	0.2	4.8%[38.3 µM]	1.2
- O=C(NCC1CC1)c1onc(CSc2ccc(F)cc2)c1C(=O)NCC1CC1
→ -5	6	-2	-0.1	-0.6%	-0.9
- Cc1cc(C(=O)N2CCC(C(=O)O)CC2)c(C(F)(F)F)o1
→ -5	5	4	-0.4	-1.2%	0.8
- CCCCCc1nnc(NC(=O)Cc2ccc([N+](=O)[O-])cc2)s1
→ -5	-4	2	0.6	-0.1%	6.0
- COc1cc(C)cc(C(=O)C=Cc2ccccc2)c1O
→ -8	-2	-9	3.0	-2.2%	-5.0
- COc1cccc(-n2nnnc2SCC(=O)NCc2ccco2)c1
→ -11	-7	-1	-0.6	-0.9%	-4.2
- COc1ccccc1N1CCN(C(=O)c2c(C)noc2C)CC1
→ -1	3	34	1.1	-0.3%	4.0
- N#CC1=C(N)NC(SCC(=O)O)=C(C#N)C12CCCC2
→ -5	14	-23	0.2	-0.3%	-4.1
- CCCCOc1ccc(/C=N/NC(=O)c2nnn(-c3nonc3N)c2CN2CCCCCC2)cc1
→ -10	0	4	0.0	6.1%	1.5
- O=C(NCc1ccc(Cl)cc1)NC1COc2ccccc2C1 (configuration not stated)
→ nt	nt	-14	-0.6	4.9%	nt
- Cc1cc(C)cc(N2CCn3c2nc2c3c(=O)n(C/C=C/c3ccccc3)c(=O)n2C)c1
→ nt	nt	12	0.0	-0.2%	nt
- COc1ccccc1N=C(C)C1=C(O)COC1=O
→ 3	4	19	0.8	-1.2%[38.3 µM]	-0.2
- CC(C)C1COC(c2cccn2Cc2ccccc2Cl)=N1 (configuration not stated)
→ -10	8	-4	1.6	13%	-4.4
- O=C(NCCCC1CCCC1)C1CCC(=O)N(Cc2ccc(Cl)cc2)C1 (configuration not stated)
→ -12	1	2	0.7	0.7%	4.9
- COc1cccc2c1cc1c(=O)n(CC(=O)NCc3ccccn3)nc(C)n12
→ 9	2	9	-0.2	2.2%	3.8
- O=C(Nc1ccnn1C1CCN(Cc2cccc(OCCO)c2)CC1)C1CCOC1 (configuration not stated)
→ -12	4	5	0.0	2.5%	-4.7
- CCOc1ccc(CCNC(=O)c2ccc3ccccc3n2)cc1OCC
→ -15	-2	16	0.3	0.5%	-0.1
- CCCCC(CC)CNC(=O)CC1Nc2c3ccccc3nc(=S)n2C1=O (configuration not stated)
→ 2	0	-3	-1.4	2.6%	-9.2
- Cc1cc(Nc2ccc(F)cc2)nc(N)n1
→ -9	5	-2	-0.3	-22%[38.3 µM]	-3.4
- O=[N+]([O-])c1ccc(F)cc1OCc1nc(-c2cccs2)no1
→ -1	0	9	-0.3	0.8%	1.5
- COc1ccc(S(=O)(=O)N2CCC(C(=O)Nc3ccc(Oc4ccccc4)cc3)CC2)cc1
→ nt	nt	-4	-0.2	1.0%	nt
- NS(=O)(=O)c1cccc(NC(=O)COC(=O)/C(=C/c2cccs2)c2cccs2)c1
→ -11	-11	15	1.9	2.0%	4.0
- Cc1ccc(-c2ccc(SCC(=O)Nc3ccc4c(c3)OCCO4)nn2)cc1
→ -4	-15	11	0.7	2.4%	-4.5
- N#Cc1cnc(SCC(=O)N2CCCCC2)nc1N
→ 3	0	-6	3.4	-2.7%	1.2
- COc1ccccc1S(=O)(=O)Cc1ccc(C(=O)NC2CCCCCC2)o1
→ -3	4	-5	-0.6	-1.1%	-3.6
- COC(=O)c1ccc(S(=O)(=O)N2CCC(c3nc4ccccc4o3)CC2)cc1
→ 13	6	13	0.2	nt	1.5
- CCCc1nc2oc3c(NCc4ccccn4)ncnc3c2c2c1COC(C)(C)C2
→ -3	-6	17	0.0	11%	-2.3
- CC(=O)Nc1ccc(S(=O)(=O)N2CCC(c3nc4ccccc4[nH]3)CC2)cc1
→ -9	-5	21	0.4	13%[38.3 µM]	-0.6
- CC12CN(C(=O)c3ccc([N+](=O)[O-])cc3)CC(C)(CN(C(=O)c3ccc([N+](=O)[O-])cc3)C1)C2=O
→ 1	-1	-20	0.5	-0.2%	-2.9

Other records
Under each structure – D2 PAM	Six1-Eya2 blk	TRPML1 blocker	TRPML1 ag	PINK1 expr mod	D2 agonist
- CC(C)Oc1ccc(S(=O)(=O)N2CCCCC2)cc1NC(=O)CN1CCCC1c1cccs1 (configuration not stated)
→ -1	13	8	1.5	3.9%	-0.4
- CC1CN(c2nc3ccccc3nc2SCC(=O)Nc2ccc(F)cc2)CC(C)O1 (configuration not stated)
→ -1	10	-2	-0.9	3.6%	-4.4
- CCN(c1ccccc1)c1nnc(NC(=O)Nc2ccc(Br)cc2F)s1
→ nt	nt	-16	-0.1	-0.7%	nt
- Cc1ccc(NC(=O)Cc2noc3ccccc23)c(C)c1
→ -1	-13	-7	-1.1	3.3%	-0.3
- O=C(c1ccccc1)c1ccc(OCCO)cc1
→ -4	10	1	0.9	-0.2%	-2.3
- COc1ccc(/C=C(\NC(=O)c2ccccc2)C(=O)NCc2ccco2)cc1OC
→ -3	-7	-1	-0.8	0.2%	-1.4
- CCOC(=O)c1cnc(Nc2nc3ccccc3o2)nc1CSC(=S)N(CC)CC
→ -17	-10	48	0.1	1.9%	-3.1
- CCOC(=O)/C(N=Nc1c(C)n(C)n(-c2ccccc2)c1=O)=C(/O)c1ccccc1
→ -13	-10	29	-0.5	0.2%	-5.3
- COc1ccccc1N1CCN(S(=O)(=O)c2cn(C)c(=O)n(C)c2=O)CC1
→ -6	3	21	0.0	2.3%	-1.6
- Cc1cc2oc(=O)cc(CN3CCCCC3)c2cc1C
→ 11	2	nt	nt	3.9%	-5.0
- Cc1ccc(CCC(=O)NCc2ccccc2)o1
→ -3	0	-3	-0.4	0.1%	9.7
